Compound activity from PubChem BioAssay.
V. cholerae motility = Vibrio cholerae motility inhibitors, OD read-out (AID 588778); Vibrio cholerae motility, OD read-out; higher % means a stronger effect; test concentration not given here; primary cut-off and reference of the scale not given here; strong numbers were not always called active; inhibition, %; hits with a dose series show IC50 in µg/mL; 10,000 tested, under 10 active; in the data active = confirmed in a dose series; inconclusive = primary hit not retested
V. cholerae motility viability = second read-out of V. cholerae motility, no call of its own (marks repeat the call); inhibition, %; measured here: bacterial viability at 10 ug/mL;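 higher means fewer living bacteria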
Starred values were filed as active, the others as inactive; ? = inconclusive; nt = no result given. This is a subset (hit frequency here may not be typical).

SMILES	V. cholerae motility	V. cholerae motility viability
O=c1oc2cc(OC/C=C/c3ccccc3)ccc2c2ccccc12	18%	26
CCc1c(C)sc(NC(=O)C(Sc2ccccc2)c2ccccc2)c1C(N)=O (stereo unspecified)	-25%	-18
O=CN1CCN(C(=O)CC(c2ccccc2)c2cc(Br)ccc2O)CC1 (stereo unspecified)	-13%	-7
N#Cc1c(N)nc(C(Cl)(Cl)Cl)nc1-c1ccccc1	-23%	-11
Cc1ccc(NC(=S)N(C)N)cc1Cl	-23%	-2
O=C(Oc1ccccc1Cl)C1CC(=O)N(c2ccc(F)cc2)C1 (stereo unspecified)	12%	0
CC(=O)OC1=Cc2c(ccc3ccc(=O)oc23)OC1(C)C	7%	30
COC(=O)Cc1c(C)nc2nc(-c3ccco3)[nH]n2c1=O	5%	-1
O=C(Nc1ccccc1Cl)c1cccc(COc2ccc3c(c2)CCC3)c1	-10%	-8
Cc1cc(C(F)(F)F)nc(SCC(=O)c2ccc(Br)cc2)n1	4%	0
COc1cccc(C(=O)n2cnnc2N)c1OC	11%	10
S=C(NC(=NCc1ccccc1)c1ccc(Cl)cc1Cl)N1CCOCC1	18%	3
COc1ccc(CNC(=O)c2ccccc2I)cc1OC	0%	-5
Cc1cc(C(F)(F)F)nc(Nc2nc3ccccc3s2)n1	-12%	-3
Cc1onc(-c2c(F)cccc2Cl)c1C(=O)NC1CCS(=O)(=O)C1 (stereo unspecified)	-12%	-4
CCOc1ccc(CNC(=S)NNC(=S)Nc2ccc(Br)cc2)cc1	8%	4
CCOC(=O)N1CCN(C2CC(=O)N(c3cccc(Br)c3)C2=O)CC1 (stereo unspecified)	-7%	-4
COc1ccc(-n2ncc3c(N4CCN(c5ccccc5F)CC4)ncnc32)cc1	-9%	-4
Cc1ccc2nc(S(=O)(=O)O)[nH]c2c1	-16%	-9
CN(c1cccc(NC(=O)CN2C(=O)c3cccc4cccc2c34)c1)S(C)(=O)=O	12%	2

An excerpt of these results, as a markdown table.
| Compound | V. cholerae motility | V. cholerae motility viability |
| --- | --- | --- |
| Cc1ccc(NC(=S)N(C)N)cc1Cl | -23% | -2 |
| O=C(Oc1ccccc1Cl)C1CC(=O)N(c2ccc(F)cc2)C1 (stereo unspecified) | 12% | 0 |

The main list resumes; the 3 compounds before the break are reprinted first.
SMILES	V. cholerae motility	V. cholerae motility viability
COc1ccc(-n2ncc3c(N4CCN(c5ccccc5F)CC4)ncnc32)cc1	-9%	-4
Cc1ccc2nc(S(=O)(=O)O)[nH]c2c1	-16%	-9
CN(c1cccc(NC(=O)CN2C(=O)c3cccc4cccc2c34)c1)S(C)(=O)=O	12%	2
C=CCNC(=S)NC(=O)c1cccc2ccccc12	-2%	-2
O=c1c2c(nc3cc(-c4cccc(Cl)c4)[nH]n13)CCCC2	9%	8
Cc1c(C#N)sc2nc(-c3ccccc3)nc(N3CCN(c4ccccc4)CC3)c12	5%	-2
Cn1cccc1/C=C(/C#N)c1nc(-c2cccs2)cs1	-13%	-16
O=S(=O)(c1ccc(Br)s1)N1CCN(c2cccc(C(F)(F)F)c2)CC1	-9%	-3
CC(C)(C)c1ccc(S(=O)(=O)NCCOCC(F)(F)C(F)F)cc1	5%	2
O=C(NC(=S)Nc1ccc(N2CCCCC2)cc1)c1ccc(-c2ccccc2)cc1	-8%	-9
Cc1cc(CNC(=O)Nc2ccc3c(c2)OCO3)nn1C	13%	4
Cn1cnnc1SCC(=O)N1c2ccccc2Sc2ccc(C(F)(F)F)cc21	-9%	-7
O=C(O)CN1C(=O)c2cccc(Oc3ccc(Cl)cc3)c2C1=O	5%	-6
CCC(C(=O)Nc1ccon1)c1ccccc1 (stereo unspecified)	13%	-2
O=S(=O)(c1cccc2nonc12)N1CCN(c2ccccc2Cl)CC1	-9%	-7
NC(=O)C1CCN(C(=O)c2ccccc2CCc2ccccc2)CC1	9%	-2
CS(=O)(=O)N(CC(=O)N1CCCCCC1)c1cccc(C(F)(F)F)c1	-3%	-9
CS(=O)(=O)N1CCN(c2ccc(F)cc2)CC1	-20%	-12
O=C(CCS(=O)(=O)c1ccc(F)cc1)N1CCOCC1	-16%	-5
O=C(CSc1ccc(Cl)cc1)Nc1ccc(N2CCN(C(=O)c3cccs3)CC2)cc1	20%	3
O=C(Nc1c(C(=O)N2CCC(Cc3ccccc3)CC2)cnn1-c1ccccc1)c1ccco1	6%	-1
S=C(NCCn1cc(Br)cn1)NCc1ccco1	-9%	-4
Cc1cc(CN2CCN(CCC#N)CC2)c(O)c(C2(C)CCCCC2)c1	28%	18
O=C(O)C(Cc1ccccc1)N1C(=O)/C(=C/c2ccc([N+](=O)[O-])cc2)SC1=S (stereo unspecified)	8%	1
O=S(=O)(Nc1ccc(Br)cc1F)c1ccc2c(c1)OCCO2	18%	10
O=[N+]([O-])c1cccc(-c2nc(Oc3ccc(Cl)cc3)c3ccccc3n2)c1	16%	33
O=C(OCc1nnc(-c2ccccc2)o1)c1cccs1	19%	4
Cc1nnc(NC(=O)C2CC(=O)N(c3ccc(Cl)cc3)C2)s1 (stereo unspecified)	-1%	25
O=C(Nc1ccccc1)Nc1cccc2nsnc12	47%	14
Cc1c(Br)cc(C(=O)N2CCCC2)c(C)c1C	15%	4
O=S(=O)(NCc1cccs1)c1cccc(C(F)(F)F)c1	6%	3
Cc1c(Cl)cccc1Nc1nc(N)nc(C(F)(F)F)n1	7%	0
O=C(CSCc1c(Cl)cccc1Cl)Nc1nccs1	-4%	-12
Cc1ccc(S(=O)(=O)NCCCN2CCOCC2)cc1C	-17%	-13
CCC(C)c1ccc(OCC(=O)Nc2ccc(I)cc2F)cc1 (stereo unspecified)	-7%	19
C=CCNC(=S)Nc1ccc(-c2ccccc2)cc1	-21%	-9
Cc1nonc1NC(=O)c1ccccc1Br	-3%	3
O=C1CC(C(=O)Nc2ccc(Cl)cc2Cl)N=C(Nc2ccc(Cl)cc2Cl)N1 (stereo unspecified)	0%	-11
O=C(O)c1cc(S(=O)(=O)N2CCCC2)ccc1F	-4%	-4
CC1(C)C(=O)C2(C(=O)NCCc3ccccc3)CCC1C2 (stereo unspecified)	-4%	3
Cc1ccc(C(=O)Nc2ccc(S(=O)(=O)N(C)C)cc2)cc1Br	9%	23
CCn1c2ccccc2c2cc(NC(=O)C3CCCO3)ccc21 (stereo unspecified)	-5%	1
CC1CC(C)CN(c2ccc([N+](=O)[O-])cc2-c2nn[nH]n2)C1 (stereo unspecified)	-2%	4
CC(C)CCC(CC#N)C1CCOC(C)(C)C1 (stereo unspecified)	-4%	-2
O=C(OCc1cccc(F)c1)c1cccc(-c2nnn(Cc3cccc(F)c3)n2)c1	-7%	-1
O=C(COc1ccccc1)NCCSC1CCCCC1	1%	1
S=C1NC2=C(CCc3ccccc32)C(c2ccccc2Cl)N1 (stereo unspecified)	-6%	-2
CCn1c(SCC(=O)Nc2nc(-c3ccccc3)c(-c3ccccc3)o2)nc2ccccc2c1=O	6%	-3
C=CCNC(=S)Nc1ccc(F)cc1[N+](=O)[O-]	7%	3
S=C(NCc1ccc(Cl)cc1)N1CCN(c2ccccn2)CC1	-20%	-15
Cc1nnc(Sc2nc(Nc3ccc(F)cc3)nc(Nc3ccc(F)cc3)n2)s1	-4%	7
CN(C)c1ccc(NC(=S)Nc2ccc(F)cc2)cc1	13%	3
CC(NC(=O)C(=O)NCC1CCCO1)c1ccccc1 (stereo unspecified)	11%	7
Cc1sc2nc(SCC(=O)Nc3c(F)cc(F)cc3Br)n(C)c(=O)c2c1C	-12%	5
COc1cccc2cc(C(=O)NC3=C(C#N)CCC3)c(=O)oc12	-2%	-1
CC(=O)c1ccc(NC(=O)CSc2ncnc3c2sc2nc4c(cc23)COC(C)(C)C4)cc1	6%	-1
CC(=O)c1ccc(NC(=O)NNC(=O)Cc2cccs2)cc1	0%	-3
COc1cc(S(=O)(=O)N2CCN(c3cc(Cl)ccc3Cl)CC2)ccc1Cl	6%	2
CCc1ccc(OC(=O)c2cccs2)c(Br)c1	2%	-4
CCOC(=O)Cc1nnc(NC(=O)CSc2nnc3c4ccccc4n(Cc4ccccc4)c3n2)s1	5%	-1
CCOc1ccc(NC(=O)NCCN2C(C)CCCC2C)cc1 (stereo unspecified)	7%	7
O=C(Cc1ccccc1[N+](=O)[O-])N1CCN(C(c2ccccc2)c2ccccc2)CC1	-5%	-2
Cn1nnnc1SCC(=O)Nc1ncc(S(=O)(=O)c2ccc([N+](=O)[O-])cc2)s1	0%	35

Among those listed so far, these contain a furan ring, fused or not.
SMILES	V. cholerae motility	V. cholerae motility viability
COC(=O)Cc1c(C)nc2nc(-c3ccco3)[nH]n2c1=O	5%	-1
O=C(Nc1c(C(=O)N2CCC(Cc3ccccc3)CC2)cnn1-c1ccccc1)c1ccco1	6%	-1
S=C(NCCn1cc(Br)cn1)NCc1ccco1	-9%	-4

The list goes on:
SMILES	V. cholerae motility	V. cholerae motility viability
CCCCn1nnc(NC(=O)c2ccc(-c3cccc(Cl)c3Cl)o2)n1	6%	-1
Cc1nc(-c2ccc(C(C)(C)C)cc2)no1	13%	28
O=C(Nc1cccc(Cl)c1)Nc1ccc(N2CCOCC2)c(C(F)(F)F)c1	?	nt
O=C(O)CNC(=S)N(Cc1ccccc1)Cc1cccs1	3%	1
CCOc1ccc(NC(=S)Nc2ccc(C(N)=O)cc2)cc1	3%	-5
COC(=O)c1ccccc1NC(=O)Cn1c(C(F)(F)F)nc2ccccc21	5%	-6
COc1ccc(OCc2nn(-c3ccccc3)c(N)c2-c2ccccc2)cc1	-9%	-4
COc1cc2c(cc1NC(=O)c1cc(-n3cnnc3)ccc1Cl)oc1ccccc12	20%	10
O=C(CC12CC3CC(CC(C3)C1)C2)Nc1ccc(I)cc1Cl	-5%	-5
O=S(=O)(Nc1nc2nccc(-c3ccccc3)n2n1)c1ccccc1	9%	0
O=C(CSc1nc2ccccc2[nH]1)NCCOc1ccc(Cl)cc1	24%	6
COc1ccc(CSc2nc3ccccc3o2)cc1Br	-4%	-9
CN(C)C(C)(C)C#CC(O)(c1ccccc1)c1ccccc1	1%	-1
O=C(O)CCC(=O)c1ccc2ccccc2c1	-19%	-12
S=c1[nH]nc(-c2ccncc2)n1C1CCCC1	-11%	3
Cc1cc2cc(OCc3ccccc3)ccc2n1C	-5%	-2
COC(=O)C(C)(C)NC(=O)Nc1ccc(Cl)cc1Cl	-4%	-1
CC(C)Cc1ccc(C(=O)NCc2ccc3c(c2)OCO3)o1	-2%	-2
COC(=O)c1c(NC(=O)c2ccoc2C)sc2c1-c1ccc(OC)cc1CC2	-13%	-6
O=C(CNC(=O)C1CCCCC1)NNC(=S)NC(=O)c1ccc(Cl)cc1Cl	13%	30

Record cards, from the list above. Values in the order: V. cholerae motility	V. cholerae motility viability
O=C(O)CNC(=S)N(Cc1ccccc1)Cc1cccs1 across the screens: 3%	1
O=C(O)CCC(=O)c1ccc2ccccc2c1 across the screens: -19%	-12
CCCCn1nnc(NC(=O)c2ccc(-c3cccc(Cl)c3Cl)o2)n1 across the screens: 6%	-1

The listing continues.
SMILES	V. cholerae motility	V. cholerae motility viability
CCC1=NNc2cccc3c(OC)ccc1c23	2%	11
COC(=O)c1ccccc1Oc1c(F)c(F)c(/C=C/CN2CCCCC2)c(F)c1F	3%	-3
COC(=O)c1cc(OC)c(OC)cc1NC(=S)Nc1ccc([N+](=O)[O-])cc1OC	-15%	-6
CC(=O)NC1CC(C)(C)N(OC(C)=O)C(C)(C)C1	3%	0
O=S1(=O)CCC(N2CCCCC2)C1 (stereo unspecified)	-15%	-7
